BJeLR viab HTS: BJeLR cell viability loss, primary screen, luminescence, CellTiterGlo ATP | BJeLR fibroblasts viability, 48 h; HRASV12, hTERT and SV40 LT/ST transformed | viability loss activity score, % (concentration not given with the values) | 0.64% of 30,000 active; in the data active = viability loss activity score above about 50%; about a fifth of its hits are not listed in these tables;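 note: higher score means fewer live cells and less ATP luminescence; stock transfer was 50 or 100 nL into about 30 µL; 0% = vehicle wells and 100% = a reference killing control; one replicate is shown; the record names a cut of 85%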
A1 inh: inducers of caspase activity in MEF A1-2A-BIM cells, primary screen, A1 inhibitor project, cell-based, CaspaseGlo luminescence | 0.51% of 21,000 active | caspase activation, % (concentration not given with the values) | AID 2241, 2010 | caspase-Glo luminescence, 3 h; percent of clofoctol signal, DMSO as zero;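 active = most replicate scores above 10, or exactly half above 10 with mean activity above 10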;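 note: effector caspase 3 and 7 activity cleaving a DEVD luciferin substrate; 50 nL library stock added to about 30 µL; numbers are from one replicate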
Numbers without * were called inactive; . = no result given.

Below each compound – BJeLR viab HTS | A1 inh
- O=c1[nH]c2ccccc2c(=O)n1CCc1ccccc1
 : -1.4 | -3.7
- COc1ccc(S(=O)(=O)n2nc(OC(=O)C(C)(C)C)cc2N)cc1
 : -1.8 | 1.5
- C[C@@H]1CN([C@H](C)CO)C(=O)c2cccc(NS(=O)(=O)c3cn(C)cn3)c2O[C@H]1CN(C)C(=O)Nc1ccc(C(F)(F)F)cc1
 : -3.3 | .
- Cc1ccc(S(=O)(=O)N(C)C[C@@H]2Oc3c(NC(=O)C4CC4)cccc3C(=O)N([C@@H](C)CO)C[C@H]2C)cc1
 : 7.6 | .
- Cc1ccccc1CS(=O)(=O)Cc1ccc(C(=O)NC2CC2)o1
 : 3.8 | 1.1
- CCCc1c(C(=O)O)cc2c(c1O)C(=O)c1c(O)cccc1C2=O
 : -4.5 | 0.9
- O=C(N/C(=C\c1cccnc1)C(=O)N1CCCCC1)c1ccccc1
 : -1.8 | 0.5
- CC(C)CCNC(=O)c1cccn2c(=O)c3cc4ccccc4cc3nc12
 : -0.2 | .
- CN1CCN(CC(O)COc2ccc3ccccc3c2)CC1 (stereo not given)
 : 0.4 | 0.6
- CC(C)NC(=O)Nc1cccc2c1O[C@@H](CN(C)S(=O)(=O)c1cccs1)[C@H](C)CN([C@H](C)CO)C2=O
 : -1.6 | .
- C[C@@H]1CN([C@@H](C)CO)C(=O)c2cc(NC(=O)CCCN(C)C)ccc2O[C@H]1CN(C)Cc1ccccc1
 : 3.0 | 0.3
- C[C@H]1CN([C@@H](C)CO)C(=O)c2cc(NC(=O)Cc3ccccc3)ccc2O[C@@H]1CN(C)Cc1ccncc1
 : -1.3 | 0.4
- CC(C)=CCC/C(C)=C/CC(O)/C(C)=C/Cc1cc(C(=O)O)ccc1O (stereo not given)
 : -0.1 | -0.5
- CNC[C@@H]1Oc2ccc(NC(=O)Cc3ccccc3)cc2C(=O)N([C@H](C)CO)C[C@H]1C
 : 5.6 | 0.4
- O=C(Nc1ccc2ccccc2c1)/C(=C/c1ccco1)c1ccccc1
 : 9.1 | 0.5

Compound profiles, as listed above. Screens in order: BJeLR viab HTS | A1 inh
CC(C)=CCC/C(C)=C/CC(O)/C(C)=C/Cc1cc(C(=O)O)ccc1O (stereo not given) across the screens: -0.1 | -0.5
CC(C)CCNC(=O)c1cccn2c(=O)c3cc4ccccc4cc3nc12 across the screens: -0.2 | .

The listing continues:
Below each compound – BJeLR viab HTS | A1 inh
- Cc1ccc(S(=O)(=O)Nc2cccc3c2O[C@H](CN(C)C(=O)Nc2ccc4c(c2)OCO4)[C@H](C)CN([C@H](C)CO)C3=O)cc1
 : -0.2 | .
- COc1ccc(S(=O)(=O)Nc2cccc3c2O[C@H](CN(C)C(=O)NC2CCCCC2)[C@@H](C)CN([C@H](C)CO)C3=O)cc1
 : 2.7 | .
- COc1ccc(S(=O)(=O)Nc2cccc3c2O[C@H](CN(C)S(=O)(=O)c2ccccc2)[C@H](C)CN([C@@H](C)CO)C3=O)cc1
 : -1.0 | .
- C[C@@H]1CN([C@@H](C)CO)C(=O)c2cc(NC(=O)c3ccncc3)ccc2O[C@H]1CN(C)Cc1ccc(-c2ccccc2)cc1
 : -1.4 | 0.4
- C[C@H](CO)N1C[C@H](C)[C@H](CN(C)CC2CC2)Oc2ccc(NC(=O)Cc3ccccc3)cc2C1=O
 : 1.2 | -0.4
- C[C@H]1CN([C@@H](C)CO)C(=O)c2cc(NS(=O)(=O)c3cccs3)ccc2O[C@@H]1CN(C)S(=O)(=O)c1ccc(Cl)cc1
 : -3.1 | -0.6
- N#Cc1c(-c2cccs2)cc(-c2ccc(C(=O)O)cc2)nc1SCc1cccs1
 : 1.4 | 0.1
- CCN(CC)CCOc1ccccc1
 : 1.6 | -0.1
- O=C(CSc1ccc(-c2ccncc2)nn1)N1CCCCC1
 : 4.0 | -1.6
- C[C@H](CO)N1C[C@H](C)[C@@H](CN(C)C(=O)Nc2ccc3c(c2)OCO3)Oc2ccc(NS(C)(=O)=O)cc2C1=O
 : -0.4 | 0.9
- C[C@@H]1CN([C@H](C)CO)C(=O)c2cc(NS(C)(=O)=O)ccc2O[C@H]1CN(C)S(=O)(=O)c1ccccc1
 : -6.4 | 0.7
- C[C@@H]1CN([C@@H](C)CO)C(=O)c2cc(NC(=O)Nc3ccc(F)cc3)ccc2O[C@H]1CN(C)Cc1ccccc1
 : 1.7 | -0.6
- C[C@@H]1CN([C@@H](C)CO)C(=O)c2cccc(NS(=O)(=O)c3ccc(F)cc3)c2O[C@@H]1CN(C)C(=O)Nc1ccc2c(c1)OCO2
 : -2.0 | .
- COc1ccc(S(=O)(=O)N(C)C[C@H]2Oc3ccc(NC(=O)Nc4cccc5ccccc45)cc3C(=O)N([C@@H](C)CO)C[C@@H]2C)cc1
 : 3.8 | -0.4
- C/C(=N\O)C(C)(C)Nc1ccc(C(C)(C)C)cc1
 : -3.0 | -1.2
- CCOc1cc(N2CCOCC2)c(OCC)cc1NC(=O)C(C)(C)C
 : -2.3 | 0.0
- COc1ccc(NC(=O)N(C)C[C@@H]2Oc3ccc(NC(=O)Nc4ccc(F)cc4)cc3C(=O)N([C@@H](C)CO)C[C@H]2C)cc1
 : -2.5 | -0.3
- CCOC(=O)C1CCN(C(=O)c2ccc(CNS(=O)(=O)c3ccc(C)cc3)cc2)CC1
 : 2.2 | 0.2
- CN(c1ccccc1)S(=O)(=O)c1ccc(Cl)cc1
 : -3.7 | -0.2
- CSc1nnc2c(n1)OC(C1CC=C(C)CC1)Nc1ccccc1-2 (stereo not given)
 : 1.3 | -1.0
- Cc1ccsc1CNC(=O)Nc1ccc(C(F)(F)F)cc1
 : 1.3 | .
- CCOC(=O)c1[nH]c(C(=O)O)c(CC)c1C
 : -0.4 | 0.8
- C[C@H]1CN([C@@H](C)CO)C(=O)c2cccc(NS(=O)(=O)c3ccc(F)cc3)c2O[C@H]1CN(C)Cc1ccc(Cl)c(Cl)c1
 : -2.4 | .
- C[C@H]1CN([C@@H](C)CO)C(=O)c2cc(NS(=O)(=O)c3ccccc3)ccc2O[C@H]1CN(C)Cc1ccc2c(c1)OCO2
 : 1.6 | 0.5
- Cc1ccc(OCCn2c(CC(C)(C)C)nc3ccccc32)cc1
 : -0.9 | -1.3
- Cc1ccc(N=C2NC(=O)CC(C(=O)Nc3ccc(Cl)cc3)S2)cc1C (stereo not given)
 : 6.6 | -0.1
- Cn1c2c(c(=O)n(C)c1=O)CN(C1CCCC1)CN2
 : -1.4 | -0.2
- CC(C)NC(=O)N(C)C[C@H]1Oc2c(NC(=O)Nc3cccc4ccccc34)cccc2C(=O)N([C@@H](C)CO)C[C@@H]1C
 : -4.1 | .
- C[C@@H]1CN([C@H](C)CO)C(=O)c2cccc(NC(=O)C3CC3)c2O[C@@H]1CN(C)Cc1ccc(Cl)c(Cl)c1
 : 5.2 | .
- Cc1noc(C)c1NC(=O)Nc1ccc2c(c1)C(=O)N([C@@H](C)CO)C[C@@H](C)[C@H](CN(C)CC1CCCCC1)O2
 : 2.5 | 0.2
- O=C(COc1ccccc1)Nc1c(C(=O)c2ccccc2)oc2ccccc12
 : 4.2 | .
- CCC(=O)N1CCc2cc(S(=O)(=O)N(CC)c3ccccc3)ccc21
 : 3.6 | .
- C[C@@H]1CN([C@H](C)CO)C(=O)c2cc(NC(=O)c3ccncc3)ccc2O[C@H]1CN(C)Cc1ccc(C(F)(F)F)cc1
 : -1.7 | 0.2
- Cc1cc(C(=O)Nc2cccc3c2O[C@@H](CN(C)Cc2ccc(C(=O)O)cc2)[C@@H](C)CN([C@H](C)CO)C3=O)n(C)n1
 : 3.3 | .
- Cc1cc(C)c(-c2cc(C(F)(F)F)no2)c(=O)[nH]1
 : -1.2 | .
- CCCCN(C)C(=O)c1oc(=O)c2ccccc2c1-c1ccc(C)cc1
 : 1.5 | .
- OCc1cc2c(cn1)[nH]c1ccccc12
 : 3.9 | -0.1
- CCOC(=O)c1c(C)oc2c1c(C=NC(C)c1ccccc1)c(O)c1ccccc12 (stereo not given)
 : -4.3 | .
- C[C@H](CO)N1C[C@H](C)[C@@H](CN(C)C(=O)NC2CCCCC2)Oc2c(NS(C)(=O)=O)cccc2C1=O
 : 0.1 | .
- Cc1noc(C)c1NC(=O)Nc1cccc2c1O[C@@H](CN(C)Cc1ccc(C(F)(F)F)cc1)[C@@H](C)CN([C@@H](C)CO)C2=O
 : -1.0 | .
- CC(=O)NC1=NN(C(C)=O)C(/C=C/c2ccccc2)S1 (stereo not given)
 : 0.2 | .
- Cn1nc(C(C)(C)C)cc1C(=O)Nc1cccnc1
 : -4.1 | -0.3
- O=P(O)(C1Cc2ccccc2C1)C(O)c1ccco1 (stereo not given)
 : 0.4 | .
- Cc1noc(C)c1S(=O)(=O)N(C)C[C@H]1Oc2c(NC(=O)C3CCOCC3)cccc2C(=O)N([C@@H](C)CO)C[C@H]1C
 : -12 | .
- Cc1ccc(C(=O)Nc2cccc(C(F)(F)F)c2)cc1
 : -3.8 | -1.5

Single values from the list.
Under BJeLR viab HTS, CCCCN(C)C(=O)c1oc(=O)c2ccccc2c1-c1ccc(C)cc1 is entered as 1.5
Under BJeLR viab HTS, Cc1cc(C)c(-c2cc(C(F)(F)F)no2)c(=O)[nH]1 is entered as -1.2
Under BJeLR viab HTS, Cn1c2c(c(=O)n(C)c1=O)CN(C1CCCC1)CN2 is entered as -1.4

Other entries follow.
Below each compound – BJeLR viab HTS | A1 inh
- C[C@H](CO)N1C[C@H](C)[C@@H](CN(C)C(=O)Nc2ccccc2)Oc2ccc(NS(=O)(=O)c3ccc(Cl)cc3)cc2C1=O
 : 2.2 | 0.1
- C[C@H](CO)N1C[C@H](C)[C@@H](CN(C)C(=O)NC2CCCCC2)Oc2ccc(NS(=O)(=O)c3ccc(Cl)cc3)cc2C1=O
 : 0.6 | -0.1
- CC(C(=O)N1CCc2ccccc21)N1C(=O)c2ccccc2C1=O (stereo not given)
 : 5.5 | 0.2
- COc1ccc(OCC(O)CNC(C)(C)C)cc1 (stereo not given)
 : 0.3 | -0.4
- O=C(Nc1nccs1)c1cc2ccccc2oc1=Nc1ccc(Cl)cc1
 : 21 | 0.4
- C[C@@H]1CN([C@H](C)CO)C(=O)c2cccc(NC(=O)NC3CCCCC3)c2O[C@H]1CN(C)C(=O)Nc1ccc(C(F)(F)F)cc1
 : -0.4 | .
- CC(C)NC(=O)Nc1ccc2c(c1)C(=O)N([C@H](C)CO)C[C@H](C)[C@@H](CN(C)C(=O)Nc1cccc3ccccc13)O2
 : 5.1 | 0.6
- C=CCn1cc(C(=O)OC)c(=O)c2cc(S(=O)(=O)N(CC)CC)ccc21
 : -0.2 | -0.2
- CCOC(=O)C1=C(CC)NC2=C(C(=O)CCC2)C1c1ccc(Cl)cc1 (stereo not given)
 : -5.2 | 0.8
- CCOC(=O)c1cc(-c2ccc(C)cc2)n(CCC(=O)NC2CCCCCC2)c1C
 : 1.7 | -0.2
- CC(=O)N(c1ccc2oc3c(c2c1)CCCC3)S(=O)(=O)c1ccccc1
 : -1.2 | 0.2
- Cc1noc(C)c1S(=O)(=O)N(C)C[C@H]1Oc2c(NC(=O)C3CCCCC3)cccc2C(=O)N([C@H](C)CO)C[C@H]1C
 : -0.3 | .
- Cc1ccc(S(=O)(=O)N(C)C[C@H]2Oc3ccc(NC(=O)C4CC4)cc3C(=O)N([C@@H](C)CO)C[C@H]2C)cc1
 : -5.1 | 1.1
- C[C@H](c1ccccc1)N1C[C@@H](CO)OC1=O
 : 2.0 | 0.5
- CC(C)(C)c1ccc(S(=O)(=O)CCSc2nc3c(cc2C#N)CCCC3)cc1
 : -1.3 | -0.1
- COc1ccc(NC(=O)Nc2cccc3c2O[C@H](CN(C)C(=O)Nc2ccccc2)[C@H](C)CN([C@H](C)CO)C3=O)cc1
 : -1.2 | .
- COc1ccc(CCNC(=O)C(Sc2ccc(Cl)cc2)c2ccccc2)cc1OC (stereo not given)
 : 3.5 | -0.9
- C[C@@H]1CN([C@@H](C)CO)C(=O)c2cc(NC(=O)Nc3ccccc3)ccc2O[C@@H]1CN(C)Cc1ccc(-c2ccccc2)cc1
 : 1.0 | 0.2
- Cc1ccc(Nc2nc(Nc3ccc(C)cc3)nc(-n3sc(=S)nc3C)n2)cc1
 : -1.2 | -0.3
- O=C1CC2(CCCC2)C(=O)N1c1ccc(OC(F)(F)F)cc1
 : 3.2 | .
- N#Cc1c(-c2ccco2)cc(-c2cccs2)nc1OCc1ccc(F)cc1
 : -4.5 | -1.0
- COc1ccc(S(=O)(=O)N(C)C[C@H]2Oc3c(cccc3N(C)C)C(=O)N([C@H](C)CO)C[C@@H]2C)cc1
 : 3.5 | .
- C[C@@H]1CN([C@@H](C)CO)C(=O)c2cccc(NS(=O)(=O)c3cccs3)c2O[C@H]1CN(C)S(=O)(=O)c1cn(C)cn1
 : 1.3 | .
- Cc1csc2sc(-c3ccnc(SCC(=O)c4ccccc4)n3)c(C)c12
 : -1.0 | -0.7
- Cc1noc(C)c1NC(=O)Nc1cccc2c1O[C@H](CN(C)C(=O)Nc1ccc3c(c1)OCO3)[C@@H](C)CN([C@@H](C)CO)C2=O
 : 0.5 | .
- C[C@H]1CN([C@@H](C)CO)C(=O)c2cccc(NS(=O)(=O)c3ccc(Cl)cc3)c2O[C@@H]1CN(C)Cc1ccc(-c2ccccc2)cc1
 : -4.6 | .
- COc1ccc(NC(=O)Nc2cccc3c2O[C@H](CN(C)C(=O)Nc2ccc(OC)cc2)[C@H](C)CN([C@H](C)CO)C3=O)cc1
 : -5.3 | .
- CN(C)c1ccc(/C=C(\C#N)S(C)(=O)=O)c(F)c1C#N
 : 3.5 | 0.8
- O=S(=O)(Cc1ccco1)Cc1nc(-c2ccc(-c3ccccc3)cc2)cs1
 : 2.9 | -0.8
- CC1(C)CCc2cc(C3SCCS3)ccc2O1
 : -1.4 | 0.3
- C[C@H]1CN([C@@H](C)CO)C(=O)c2cc(NC(=O)Nc3ccccc3)ccc2O[C@@H]1CN(C)Cc1ccc2c(c1)OCO2
 : 1.0 | -0.3

This is a subset (hit frequency here may not be typical).
